# Source: PubChem BioAssay (several laboratories)
# Bfl-1 A1 inh – inhibitors of the anti-apoptotic protein A1, read as caspase activation | AID 2462 | caspase activation, % (concentration not given with the values) | actives 0.066% (n = 330,000) | MEF A1-2A-BIM cells, Caspase-Glo 3/7 luminescence, 3 h; percent of clofoctol response, vehicle zero;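 active = over half of replicate activation scores above 10%, or exactly half above 10 with the replicate mean above 10; inconclusive = replicate mean below 10 yet half the replicates above 10; inactive = over half of replicates below 10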;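 note: wells of about 30 µL received 50 nL stock; many hits fall short of the cut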
# Calb FLC – C. albicans growth modulation with fluconazole | C. albicans CaCi-2 (fluconazole-resistant clinical isolate) + fluconazole, Alamar Blue growth, 48 h | growth inhibition, % (concentration not given with the values) | actives 0.57% (n = 300,000);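 active = most replicates above 75%; inconclusive = exactly half above 75%; inactive = most below 75%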;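 note: all wells also contain fluconazole at 8 µg/ml as a sub-toxic cotreatment; 0% = median of DMSO wells and 100% = median of geldanamycin control wells; wells of about 8 µL received 7.5 nL stock; the first replicate is given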
# T cruzi inh – blocks replication of Trypanosoma cruzi; T. cruzi beta-gal in NIH3T3, luminescence, 90 h; inhibition, % (test concentration not listed); actives 1.4% (n = 300,000); AID 1885;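 active = mean inhibition across valid replicates above about 55%, limit read from the data; inconclusive = mean below that limit but half or more replicates reach it; inactive = mean below it, under half of replicates reach it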;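 note: signal also drops with host cell toxicity which is not excluded here; 0% = plate median of DMSO wells and 100% = zero luminescence signal; higher percent means less beta-gal luminescence so fewer parasites; stock transfer was 50 nL into about 50 µL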
# Beta apoptosis – blocks beta cell apoptosis; INS-1E cytokine-induced death, ATP luminescence, 48 h; percent of positive-control rescue, neutral wells zero; protection from apoptosis, % (no concentration beside the values); actives 0.8% (n = 300,000);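 active = all replicates at 75% or more, or half of them and the mean; inconclusive = half reach 75% but not the mean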;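 note: 0% = cytokine-treated negative control wells and 100% = positive control rescue; higher means more ATP so stronger rescue from cytokine killing; wells of about 40 µL received 100 nL stock; the first replicate is given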
# UCH37 DUB inh – human UCH37 deubiquitinating enzyme inhibition; Q9Y5K5; purified proteasome/UCH37, Ub-AMC cleavage fluorescence; inhibition, % (no concentration beside the values); actives 0.33% (n = 330,000); AID 588478;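 active = mean of two replicates above 20%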;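 note: 0% = compound-free wells with enzyme and 100% = wells lacking proteasome; stock transfer was 100 nL into about 20 µL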
#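 Material: Human UCH37 enzyme supplied as purified proteasome complex | Schedule: 30 min compound-proteasome preincubation then 25 min substrate reaction, room temperature | Detection: AMC fluorescence from Ub-AMC cleavage, excitation 355 nm, emission 460 nm | Benchmarks: Wells without proteasome as full block, compound-free enzyme plus substrate as uninhibited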
# LANA-H2A inh – blocks KSHV LANA binding to histone H2A/H2B; Q9QR71; cell-free LANA-H2A/H2B peptide, fluorescence polarization; inhibition, % (no concentration beside the values); actives 0.6% (n = 320,000); AID 2629; in the data active = inhibition mostly above about 10%, no sharp cut-off; inactive = mostly below about 6.7%;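 note: stock transfer was 7.5 nL into about 10 µL; 0% = median of vehicle wells and 100% = median of positive control wells; one replicate is shown; the record names a cut of 25% in any replicate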
# Target sequence (Q9QR71 whole entry, looked up): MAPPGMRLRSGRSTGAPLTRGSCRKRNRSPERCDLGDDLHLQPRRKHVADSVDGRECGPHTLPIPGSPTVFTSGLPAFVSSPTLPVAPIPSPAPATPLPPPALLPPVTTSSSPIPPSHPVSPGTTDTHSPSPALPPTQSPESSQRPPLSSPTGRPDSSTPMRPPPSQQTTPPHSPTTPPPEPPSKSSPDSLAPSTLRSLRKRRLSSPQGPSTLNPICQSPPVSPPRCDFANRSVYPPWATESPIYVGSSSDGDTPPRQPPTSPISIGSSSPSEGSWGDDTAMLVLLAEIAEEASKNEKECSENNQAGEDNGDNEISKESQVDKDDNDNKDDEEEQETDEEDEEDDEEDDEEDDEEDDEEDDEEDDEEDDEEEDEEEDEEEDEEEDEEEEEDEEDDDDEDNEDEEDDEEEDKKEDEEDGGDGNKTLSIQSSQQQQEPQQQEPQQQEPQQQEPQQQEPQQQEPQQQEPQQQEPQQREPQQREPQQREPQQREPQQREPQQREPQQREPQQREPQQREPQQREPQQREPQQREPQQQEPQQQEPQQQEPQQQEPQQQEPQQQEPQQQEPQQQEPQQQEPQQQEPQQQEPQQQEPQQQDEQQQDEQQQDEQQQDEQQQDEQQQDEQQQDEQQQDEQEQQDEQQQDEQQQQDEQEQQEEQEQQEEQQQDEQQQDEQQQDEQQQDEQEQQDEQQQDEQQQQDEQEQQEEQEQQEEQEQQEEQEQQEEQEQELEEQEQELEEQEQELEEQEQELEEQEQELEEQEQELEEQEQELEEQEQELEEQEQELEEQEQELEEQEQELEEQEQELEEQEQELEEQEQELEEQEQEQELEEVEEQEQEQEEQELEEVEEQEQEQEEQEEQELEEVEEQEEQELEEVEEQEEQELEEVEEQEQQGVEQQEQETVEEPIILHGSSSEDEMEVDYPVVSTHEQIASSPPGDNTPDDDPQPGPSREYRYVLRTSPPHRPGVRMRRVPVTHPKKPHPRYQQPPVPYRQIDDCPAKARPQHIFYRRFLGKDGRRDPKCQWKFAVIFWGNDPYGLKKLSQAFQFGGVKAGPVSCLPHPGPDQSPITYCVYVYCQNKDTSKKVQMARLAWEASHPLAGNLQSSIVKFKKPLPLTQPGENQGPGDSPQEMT
# RanGTP-Imp inh – disruptors of Ran-importin-beta complex formation – biochemical, FRET, CFP-Ran, YFP-importin-beta, homogeneous, primary screen; actives 1.1% (n = 300,000); inhibition, % (test concentration not listed); cell-free CFP-Ran/YFP-importin-beta FRET ratio; AID 2216;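 active = most replicates above 15%; inconclusive = exactly half above 15%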;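 note: 0% = DMSO wells and 100% = Ran loaded with GDP instead of GTP; wells of about 40 µL received 100 nL stock; the first replicate is given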
# Beta2AR agonist – activates human beta-2 adrenergic receptor causing internalization; Am2.2-beta2AR cells, FAP receptor internalization, flow cytometry; reference of the scale not given here; response, % (no concentration beside the values); actives 0.43% (n = 340,000);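 active = response above a set limit, near 3 SD of response in nonfluorescent compounds, cut at about 42% in these data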;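 note: stock transfer was 100 nL into about 11 µL; a reference agonist was the positive control; negative values mostly stem from fluorescent compounds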
# * hit, by the source's call; u = inconclusive; x = no result given. A portion of the library, so the mix of outcomes need not match the whole.
SMILES,Bfl-1 A1 inh,Calb FLC,T cruzi inh,Beta apoptosis,UCH37 DUB inh,LANA-H2A inh,RanGTP-Imp inh,Beta2AR agonist
Cc1ccc2c(c1)=C/C(=C\c1c(O)[nH]c(=S)[nH]c1=O)C(=O)N=2,-0.3,0,-9,-6,x,1.6,-11,x
COc1cc(C(=S)N2CCOCC2)cc(OC)c1OC(=O)Cc1ccccc1,0.5,-1,-20,0,1.5,2.1,-0.9,-2
Cn1nc(N)c2c1N=P(N1CCOCC1)(N1CCOCC1)N=C2c1ccccc1,u,-4,-12,-5,6.4,-1.7,-3.4,-3
Cc1ccsc1C(=O)C1CCCN(Cc2ccccc2O)C1 (configuration not stated),-0.7,-17,9,-5,3.9,-8.8,u,8
O=C(Nc1cccc(OC(=O)N2CCOCC2)c1)N1CCOCC1,1.0,-15,4,0,0.9,-1.6,-1.7,5
CCCN1C2CCCC1CC(NC(C)=O)C2 (configuration not stated),-0.1,-24,-5,2,0.9,-1.5,0.6,3
N#CC(Br)Br,0.9,x,x,-8,0.2,-1.9,x,-2
CCCCCCOc1ccc(CN2CCN(CC)CC2)cc1,0.1,3,65*,7,1.1,1.2,-2.2,7
CCC(COC(=O)NC)NC(=O)Oc1cccc(C)c1 (configuration not stated),-0.4,13,-1,-6,13,6.4,2.1,16
CC(C)(C)N1Cc2ccccc2C1=N,-0.3,20,1,0,4.8,-3.7,u,10
Cn1cc(C(=O)OCC(=O)N2CCCC2)c2ccccc21,0.3,x,x,-9,1.2,-1.8,x,-4
COc1ccc(C2=NCC(=S)Nc3ccc(Cl)cc32)cc1Cl,-0.2,6,-9,-2,-0.4,2.2,0.6,-15
COc1ccccc1C1=NCc2nnc(C)n2-c2ccc(Cl)cc21,0.2,x,-5,2,-11,3.5,5.8,1
CN1CCc2cccc(Cl)c2CC1,u,x,x,1,5.3,-0.5,x,-1
Cc1cccc(N2C(=O)/C(=C/c3ccc(CN(CCC#N)S(C)(=O)=O)o3)C(=O)NC2=S)c1,0.6,4,x,-5,1.5,-1.4,-1.7,0
CCCC[N+]12C3C[C@H](C4[C@H](O)[C@]5(C[C@@H]41)c1ccccc1N(C)[C@@H]35)[C@H](CC)[C@H]2O (some centres not stated),-0.5,-25,-6,1,5.3,0.6,-3.1,2
COc1ccc(NC(=O)c2cn(CCC#N)nc2-c2cccc([N+](=O)[O-])c2)cc1,0.5,8,-2,0,2.3,0.4,-2.5,-1
O=c1c2ccccc2nc(/C=C/c2ccccc2F)n1-c1ccccc1O,0.7,1,-7,14,0.9,0.7,-4.8,4
COc1cc2c(cc1O)C[C@H]1c3c(cc(O)c(OC)c3-2)CCN1C,1.2,x,x,-3,-8.7,0.6,x,-4
CCC(=Nc1ccccc1NC(C)=O)c1c(O)n(C)c(=O)n(C)c1=O,0.2,-5,2,-2,1.2,14,0.4,4
CCN(CC)C(=O)c1ccc(N2C(=O)C3CC=C(Cl)CC3C2=O)cc1 (configuration not stated),-0.4,1,-9,-2,5.0,-2.4,-0.8,4
CCCC1=C(C(=O)OCC)C2(C(=O)Nc3ccc(C)cc32)C(C#N)=C(N)O1 (configuration not stated),0.8,38,-14,-2,0.0,-4.3,0.2,0
O=c1[nH]c(=O)n(-c2ccccc2F)c(O)c1/C=C1\C=Nc2ccccc21,0.6,x,-17,-8,x,-2.9,-0.4,41
CC1CN=C(Nc2ccccc2)S1 (configuration not stated),-1.6,10,-19,1,2.2,0.0,1.0,-2
COc1cc(/C=C2/C(=O)NC(=O)N(c3ccccc3)C2=O)ccc1O,0.4,-3,-12,-1,4.4,0.2,-4.8,-2
COC(=O)C1=C(c2cc3ccccc3o2)C[C@@H]2CC[C@H]1N2C(=O)N1CCOCC1,0.7,-6,-14,2,27*,0.5,1.7,2
CC1=CC(=O)NP(=O)(Oc2ccc3ccccc3c2)N1 (configuration not stated),-0.4,20,42,2,-3.0,-0.4,1.6,2
O=C(Cc1ccccc1)OCCNC(=O)c1cccnc1,0.2,-11,2,x,-1.0,4.8,3.7,0
CN(C)CCN=Cc1c(O)n(Cc2ccc3c(c2)OCO3)c(=S)[nH]c1=O,0.6,10,5,x,4.8,1.1,-2.7,-9
O=C(NC(=O)N1CCC2(CC1)OCCO2)c1ccc(Cl)cc1,-0.4,2,-9,-3,2.5,x,1.7,4
COC(=O)C1=C(c2cc3ccccc3s2)C[C@@H]2CC[C@H]1N2C,0.9,x,x,1,3.2,-0.4,x,1
COC(=O)C1=C(c2c(C)noc2C)C[C@@H]2CC[C@H]1N2C(=O)NCCCOC(C)C,0.6,x,x,1,0.8,4.3,x,-1
CCn1c(O)c(/C(C)=N/N2CCCCC2c2cccnc2)c(=O)[nH]c1=S (configuration not stated),0.3,0,7,-1,7.7,1.9,1.2,4
CN1C(=O)C(C2(C#N)CCCCC2)C(=O)N(C)C1=O,0.3,-16,-9,-5,3.2,1.9,u,0
C[C@]12CC[C@H](O)C[C@H]1CC[C@@H]1[C@@H]2C[C@@H](O)[C@]2(C)[C@@H](C3=CC(=O)OC3)CC[C@]12O,0.4,x,x,5,3.7,2.6,x,3
COC(=O)C1=C(c2cc3ccccc3s2)C[C@@H]2CC[C@H]1N2C(=O)N1CCOCC1,-0.1,-10,-18,-2,2.9,2.1,1.0,11
Cc1cccc(CN2CCN(Cc3ccc(Cl)cc3)CC2)c1,0.1,-16,34,-1,0.1,-2.0,4.3,-3
O=C(COC(=O)Cc1ccccc1)Nc1ccc(SC(F)F)cc1,0.8,x,-15,7,-0.2,-0.1,x,-1
COc1cccc(CNCCc2ccccc2)c1OC,-0.4,u,49,2,1.4,3.6,0.0,8
Cc1ccc2c(c1)[C@@H]1CN(C)CC[C@@H]1N2C(=O)Nc1cccc(C(F)(F)F)c1,0.7,4,38,5,3.7,0.6,4.8,10
CC(=O)c1ccc2c(c1)C1C(Cl)C(Sc3ccccc3[N+](=O)[O-])CC1C(C(=O)O)N2 (configuration not stated),0.1,x,x,-1,7.1,2.6,x,14
CN1C(=O)C(=Cc2ccc(N3CCCCCC3)o2)C(=O)N(C)C1=S,0.1,x,x,2,15,0.2,x,-18
CCOC(=O)c1c(/N=C/c2c(O)n(-c3ccccc3F)c(=S)[nH]c2=O)sc2c1CCCC2,0.0,u,-1,-2,-7.9,8.7,u,10
CCCCC(=O)N/N=C/c1c(O)n(CC)c(=S)[nH]c1=O,-0.1,-15,-7,-6,15,2.6,4.1,-10
CSc1ccc(C(=O)C2CCCN(CCCn3cccn3)C2)cc1 (configuration not stated),0.3,-13,12,2,3.7,-5.7,-0.1,0
O=C(Cc1ccc(Cl)c(Cl)c1)NCC1(N2CCOCC2)CCCCC1,0.3,-1,-5,10,4.0,3.8,-0.2,-18
CNC(C(=O)c1ccccc1)C(OC)c1ccccc1 (configuration not stated),-0.6,-4,-15,2,4.6,1.8,1.0,3
O=C(c1cc(S(=O)(=O)N2CCCCC2)ccc1F)N1CCC2(CC1)OCCO2,0.9,11,-3,2,3.9,4.3,7.4,8
CC1=C2C3OC(=O)C(C)C3CC[C@@]2(C)C=CC1=O (some centres not stated),0.2,x,-14,-7,4.4,3.1,5.1,-2
Cc1cc(N2C(=O)C3CCCN3C2c2ccccc2)no1 (configuration not stated),-0.2,-11,-10,-2,-0.7,3.7,-3.1,1
O=P(N1CCCCC1)(N1CCCCC1)C(Cl)(Cl)Cl,0.4,5,1,-2,4.6,6.6,2.8,9
COC(=O)C1=C(c2ccc(OC(F)(F)F)cc2)C[C@@H]2CC[C@H]1N2C(=O)NCC1CC1,-0.6,x,x,-7,0.1,4.3,x,-5
COc1ccc(N2C(=O)/C(=C/c3ccc(C)o3)C(=O)NC2=S)cc1,x,3,-6,x,0.9,x,-1.9,44*
C#C[C@]1(O)CC[C@H]2[C@@H]3CCC4=Cc5nc6nc7ccccc7n6cc5C[C@]4(C)[C@H]3CC[C@@]21C,-0.5,x,x,6,-11,-1.9,x,28
CN(C)C(=O)Oc1ccc(OCc2cccc[n+]2C)cc1,-0.1,-5,-17,-2,1.1,0.7,-0.8,-8
CCOc1ccc(N2C(=O)/C(=C/c3ccc(C)o3)C(=O)NC2=S)cc1,-0.9,2,4,-6,6.2,0.8,-1.1,30
CN(Cc1ccccc1)C(=C(Cl)Cl)/C(=C1/NCCN1Cc1ccc(Cl)nc1)[N+](=O)[O-],0.0,u,-3,-5,6.0,1.1,-4.4,-8
CN(C)[C@@H]1C(=O)C(C(N)=O)=C(O)[C@@]2(O)C(=O)C3=C(O)c4c(O)ccc(Cl)c4[C@@](C)(O)[C@H]3C[C@@H]12,0.7,2,0,x,x,-4.0,-4.3,5
COC(=O)C1=C(c2ccccc2OCc2ccccc2)C[C@@H]2CC[C@H]1N2C(=O)NCc1ccc(OC)c(OC)c1,1.2,x,x,5,0.7,-0.4,x,2
Cc1ccc(S(=O)(=O)N(C)C)cc1NC(=O)C(C)[N+]12CCN(CC1)CC2 (configuration not stated),0.5,-4,-5,-1,1.4,-0.4,6.9,1

# (more compounds)
SMILES,Bfl-1 A1 inh,Calb FLC,T cruzi inh,Beta apoptosis,UCH37 DUB inh,LANA-H2A inh,RanGTP-Imp inh,Beta2AR agonist
CCNCCNc1ccc([N+](=O)[O-])c2cccnc12,0.0,5,54,18,14,-4.0,-1.0,-2
CC(=O)N1CN2CN(C1)CN(C(C)=O)C2,0.0,5,-17,2,2.6,0.3,1.4,5
Cc1occc1C(=O)N1CCC2(CC1)OCCO2,0.3,-13,-10,-1,1.6,0.9,2.2,0
COC(=O)C1=C(c2cccc(C#N)c2)C[C@@H]2CC[C@H]1N2C(=O)N1CCc2cc(OC)c(OC)cc2C1,-0.2,x,x,-6,1.8,-0.3,x,-2
CC(C(=O)c1c[nH]c2ccccc12)N1CCOCC1 (configuration not stated),-0.2,1,5,x,0.4,-0.2,-5.4,8
COc1cc(CN2CCNCC2)cc(OC)c1OC,0.3,11,-8,-7,-0.7,-4.7,2.4,2
CC(C)(C)[C@]1(O)C[C@@H]2OC(=O)C[C@@]23C(=O)O[C@@H]2OC(=O)[C@@H](O)C213 (some centres not stated),1.3,x,x,-1,0.0,1.9,x,4
CCCCC/C=C\C/C=C\C/C=C\C/C=C\CCCC(=O)Nc1ccc(O)cc1,1.1,20,20,x,x,-3.4,2.8,x
CCCCn1c(O)c(C(CC)=NCCCN(C)C)c(=O)[nH]c1=O,-0.2,-14,57*,-2,1.7,-4.2,-0.7,-6
COP(=O)(OC)Oc1ccc(C(O)C(Cl)(Cl)Cl)cc1 (configuration not stated),-0.4,28,-34,2,1.7,-3.2,0.2,-1
Cc1cc(OC(=O)N(C)C)nc2c1c(C)nn2C,0.8,-5,-22,-3,-0.8,-4.8,0.7,1
CCOC(=O)c1c(C)[nH]c(C)c1C(=O)C(Cc1ccccc1)N(C)C (configuration not stated),1.8,4,2,-2,3.4,-4.2,-0.9,-2
